Assay outcomes from PubChem BioAssay.
Vif TR-FRET: inhibitors of Vif binding to APOBEC3G peptide, primary screen, biochemical, TR-FRET, GST-Vif 1-94, biotin-A3G peptide, dose response retest (AID 1117319); 260,000 compounds, 0.57% hits; Virion infectivity factor (Human immunodeficiency virus type 1 group M subtype B (isolate …; TR-FRET GST-Vif / biotin-A3G peptide binding; higher % means a stronger effect; test concentration not given here; strong numbers were not always called active; one-dose inhibition, %; IC50 in µM for titrated hits;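 active means above the screen mean plus three standard deviations and confirmed in dose response; inconclusive means results disagree or hit not tested in dose response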;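 further: Vif residues 1-94 fused to GST binding biotinylated APOBEC3G peptide 110-148; 0% = full assay without inhibitor and 100% = GST in place of GST-Vif; retest series ran down from 100 µM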
LANA-H2A inh: blockers of LANA interaction with H2A/H2B – biochemical, FP readout, HTS, primary screen; AID 2629, 2010; inhibition, % (test concentration not listed); 320,000 compounds, 0.6% hits; Protein LANA1 (Human herpesvirus 8 type P (isolate GK18)), Q9QR71; cell-free LANA-H2A/H2B peptide, fluorescence polarization; in the data active means inhibition mostly above about 10%, no sharp cut-off; inactive means mostly below about 6.7%;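 further: stock transfer was 7.5 nL into about 10 µL; 0% = median of vehicle wells and 100% = median of positive control wells; one replicate is shown; the record names a cut of 25% in any replicate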
Target sequence (Q9QR71 whole entry, looked up): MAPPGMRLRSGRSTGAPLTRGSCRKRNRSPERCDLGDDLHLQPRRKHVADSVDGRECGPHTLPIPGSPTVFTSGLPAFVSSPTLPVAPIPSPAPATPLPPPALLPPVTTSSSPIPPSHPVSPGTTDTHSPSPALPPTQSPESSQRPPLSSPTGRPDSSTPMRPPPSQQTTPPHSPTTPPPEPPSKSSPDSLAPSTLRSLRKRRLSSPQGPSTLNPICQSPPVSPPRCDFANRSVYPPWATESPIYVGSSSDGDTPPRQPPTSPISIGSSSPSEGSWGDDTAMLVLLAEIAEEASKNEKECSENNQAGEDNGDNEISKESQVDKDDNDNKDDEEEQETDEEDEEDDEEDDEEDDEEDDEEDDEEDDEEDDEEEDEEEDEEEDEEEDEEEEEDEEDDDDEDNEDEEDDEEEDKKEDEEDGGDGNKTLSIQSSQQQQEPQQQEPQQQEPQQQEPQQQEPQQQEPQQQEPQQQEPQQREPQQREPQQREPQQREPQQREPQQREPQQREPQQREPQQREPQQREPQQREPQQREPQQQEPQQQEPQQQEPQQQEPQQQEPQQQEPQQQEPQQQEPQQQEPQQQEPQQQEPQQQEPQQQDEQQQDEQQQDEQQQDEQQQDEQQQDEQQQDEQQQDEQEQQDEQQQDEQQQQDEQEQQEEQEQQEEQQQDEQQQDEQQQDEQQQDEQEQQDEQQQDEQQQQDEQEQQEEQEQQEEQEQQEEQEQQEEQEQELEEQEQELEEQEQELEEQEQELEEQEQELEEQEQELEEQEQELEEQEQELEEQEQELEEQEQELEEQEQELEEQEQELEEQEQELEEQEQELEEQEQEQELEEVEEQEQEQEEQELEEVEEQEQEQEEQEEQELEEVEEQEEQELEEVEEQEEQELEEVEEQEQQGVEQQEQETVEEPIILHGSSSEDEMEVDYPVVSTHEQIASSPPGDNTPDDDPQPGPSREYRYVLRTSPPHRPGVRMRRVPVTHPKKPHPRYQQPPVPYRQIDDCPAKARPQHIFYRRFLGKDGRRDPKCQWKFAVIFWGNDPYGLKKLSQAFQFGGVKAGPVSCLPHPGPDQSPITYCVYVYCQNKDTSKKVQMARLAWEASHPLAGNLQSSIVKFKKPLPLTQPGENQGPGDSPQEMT
HNF4A DNA FP: change in binding of human HNF4A to DNA, primary screen, biochemical, fluorescence polarization, FITC-DNA | Hepatocyte nuclear factor 4-alpha (Homo sapiens), P41235 | 1 h | activity change, % at 10 µM | 360,000 compounds, 0.3% hits | AID 1224865, 2016; in the data active means activity change above about 30%, passing the limit was not always enough;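 further: controls were the assay level and a saturating level of protein; the project sought stronger binding though the title names inhibitors; some compounds called inactive have numbers as strong as hits; positive values seem to mean higher polarization but the record does not say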
RanGTP-Impb inh: inhibitors of RanGTP-importin-beta interaction, primary screen, biochemical, FRET, CFP-Ran, YFP-importin-beta, homogeneous; inhibition, % (no concentration beside the values); cell-free CFP-Ran/YFP-importin-beta FRET ratio; 300,000 compounds, 1.1% hits; Ran GTPase (GTP-bound) - importin-beta complex;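 active means most replicates above 15%; inconclusive means exactly half above 15%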;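 further: 0% = DMSO wells and 100% = Ran loaded with GDP instead of GTP; wells of about 40 µL received 100 nL stock; the first replicate is given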
B2AR ag: beta2AR agonists driving receptor internalization, primary screen, cell-based, FAP fluorogen, flow cytometry; Beta-2 adrenergic receptor (Homo sapiens), P07550; Am2.2-beta2AR cells; reference of the scale not given here; response, % (test concentration not listed); 340,000 compounds, 0.43% hits; AID 504454, 2011;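 active means response above a set limit, near 3 SD of response in nonfluorescent compounds, cut at about 42% in these data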;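 further: stock transfer was 100 nL into about 11 µL; a reference agonist was the positive control; negative values mostly stem from fluorescent compounds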
Calb FLC: C. albicans growth inhibition with fluconazole, primary screen, CaCi-2 strain, Alamar Blue fluorescence; C. albicans CaCi-2 (fluconazole-resistant clinical isolate) + fluconazole, 48 h; growth inhibition, % (no concentration beside the values); 300,000 compounds, 0.57% hits; AID 1979, 2009;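 active means most replicates above 75%; inconclusive means exactly half above 75%; inactive means most below 75%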;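 further: all wells also contain fluconazole at 8 µg/ml as a sub-toxic cotreatment; 0% = median of DMSO wells and 100% = median of geldanamycin control wells; wells of about 8 µL received 7.5 nL stock; the first replicate is given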
ALR H2O2 inh: inhibitors of human ALR sulfhydryl oxidase, primary screen, biochemical, H2O2 detection, HRP-luminol luminescence, single point | AID 485317, 2010 | purified ALR, DTT oxidation | 290,000 compounds, 3.8% hits | inhibition, % (test concentration not listed);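 active means mean and each replicate at 75% or more; inconclusive means only one of the two met; inactive means neither met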;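 further: stock transfer was 7.5 nL into about 7.5 µL; 0% = neutral wells and 100% = wells with inactivated enzyme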
* = called active by the depositor; ? = inconclusive; / = no result given; & = joins results of further samples. Hits appear at their usual frequency; overall some 6.3% were active at least once.

SMILES	Vif TR-FRET	LANA-H2A inh	HNF4A DNA FP	RanGTP-Impb inh	B2AR ag	Calb FLC	ALR H2O2 inh
O=C(CC1NCCNC1=O)OCc1ccccc1 (centres undefined)	2%	-4.4	-1.1	0.6	-6	-6	2
CS(=O)(=O)Nc1nnc(CCc2ccccc2)s1	/	-6.0	12	0.1	-12	4	-2
O=C(Nc1ccccc1Cl)N1CCN(c2ccc3nnc(-c4ccccc4)n3n2)CC1	1%	-1.0	-0.2	2.6	-7	-2	/
O=C(NC(=S)N1CCN(C/C=C/c2ccccc2)CC1)c1cccnc1	-1%	-1.6	-0.3	4.0	7	6	8
O=C(Cn1nc2ccccc2n1)N/N=C/c1ccc(F)cc1	/	13	4.4	?	-5	12	-9
O=C(C1=NOC(CNc2ncc(C(F)(F)F)cc2Cl)C1)N1CCOCC1 (centres undefined)	-3%	0.2	1.4	-1.1	-6	-25	-2
Cc1cc(OCC(=O)OCC(=O)Nc2cc(S(=O)(=O)N3CCOCC3)ccc2Cl)ccc1Cl	-5%	-8.5	3.5	/	1	/	2
CCOc1ccc(S(=O)(=O)c2c[nH]c3ccc(C)cc3c2=O)cc1	-12%	-4.2	1.9	-0.4	-1	-5	-3
COc1ccc(NC(=S)NCCSc2ccc(C)cc2)c(OC)c1	/	-3.2	2.6	5.7	-3	-4	-1
Cc1cc(Br)ccc1NC(=O)CN(C)C(=O)CN1C(=O)NC(C)(C2CC2)C1=O (centres undefined)	-13%	4.3	-2.0	/	4	/	-2
COc1ccc([N+](=O)[O-])cc1NC(=O)Cn1ccc(C(F)(F)F)n1	-12%	-0.6	1.9	1.1	-2	5	/
CCCCOC(=O)NCN1C(=O)C2C3C=CC(C3)C2C1=O (centres undefined)	7%	-3.3	1.3	-13	-5	-18	-7
Cc1cc(C)c2c(=O)[nH]c(SCC(=O)N(C)C)nc2n1	15%	-0.2	0.2	6.8	-7	11	-4
CCN(CC(=O)Nc1ccc(NC(C)=O)cc1)C(=O)c1cccc(-n2cccc2)c1	16%	-2.5	-5.0	-3.0	-2	2	7
Cc1cc(N2CCN(C)CC2)nc2ccc(NC(=O)CCC(=O)NCCC3=CCCCC3)cc12	/	-3.7	-2.5	/	9	/	-19
COCc1cccc(NC(=O)Cc2cccc3ccccc23)c1	25%	-4.8	0.1	0.6	15	-44	-1
CCN(CC)C(=O)CSc1nc(O)cc(=O)n1-c1ccccc1OC	-5%	2.4	3.9	5.1	-12	-6	99*
CCc1c(O)nc(SCC(=O)Nc2ccccc2C)n(-c2ccc(C)cc2)c1=O	/	0.9	6.4	2.2	15	7	?
C=CCn1c(Cc2ccc(OC)cc2)nnc1SCC(=O)NCCc1ccccc1	-2%	-0.5	-1.0	2.1	-2	45	-38
CCCCNC(=S)N(Cc1ccco1)Cc1cc2cc3c(cc2[nH]c1=O)OCCO3	-2%	-0.6	-1.1	1.8	-3	0	15
Cc1cccc2cc(-c3nc4ccc(C(=O)O)cc4[nH]3)c(=O)oc12	4%	4.0	-7.4	?	-10	1	-24
COc1ccc(CN(C(=O)Cn2nnc3ccccc32)C(C(=O)NC(C)(C)C)c2ccco2)cc1 (centres undefined)	-5%&-3%	5.6	-3.2	8.0	-11	-15	-2
O=C(c1cccc(S(=O)(=O)N2CCN(c3ccccc3)CC2)c1)N1CC=C(c2ccccc2)CC1	/	-2.7	-0.2	-2.3	-7	0	2
Cc1ccc(CC(NC(=O)c2ccccc2)C(=O)NC(Cc2ccccc2)C(=O)O)cc1 (centres undefined)	30%	-1.2	-2.2	6.1	-4	10	-2
CCCNc1ncnc2c1cnn2C1CCCCO1 (centres undefined)	-6%	/	3.5	/	-3	/	/
O=C(CCCCCNC(=O)c1ccccc1)N/N=C/c1ccccc1	-6%	-0.9	-1.0	1.7	-6	1	36
O=C(N/C(=C\c1cccc(Br)c1)C(=O)N1CCOCC1)c1ccco1	/	-1.6	-3.4	1.8	8	-1	-5
NC1=NC(=O)S/C1=C\c1ccc(F)cc1	-8%	1.1	-2.1	1.2	15	-1	2
O=C(NCc1ccccc1)c1cc(S(=O)(=O)N2CCOCC2)ccc1F	-3%	1.8	17	-1.5	0	1	-9
O=C(O)CCC(=O)Nc1ccc(N=Nc2ccccc2)cc1	5%	/	1.8	2.7	-5	-6	/
COc1ccc(NS(=O)(=O)c2ccc3c(c2)NC(=O)C(C)S3)cc1 (centres undefined)	17%	-4.4	-1.7	-2.1	8	4	-5
O=[N+]([O-])c1cc(Cl)cc(C2=NCCN2)c1	7%	6.4	0.7	-4.1	6	-17	/
O=C(Nc1nc2ccc(F)cc2s1)c1cccs1	-9%	-1.4	2.5	1.9	1	4	-12
O=C(CSC1=NC(=O)C(c2ccccc2)C(=O)N1)Nc1ccccc1[N+](=O)[O-] (centres undefined)	12%	-0.9	0.6	1.7	8	3	95*
O=C(NCc1cccnc1)c1ccccc1Br	3%	2.0	0.5	4.1	5	18	-7
CC1Cc2ccccc2N1C(=O)CSc1nnnn1Cc1ccccc1 (centres undefined)	-4%	-9.7	1.5	0.4	-17	-1	-13
CCCNc1cc(=S)nc(N)[nH]1	-5%	1.7	1.4	36*	-5	-4	/
CCC1CCCCN1Cc1c(O)ccc2c(=O)c(-c3ccccc3)coc12 (centres undefined)	-3%	-2.2	0.6	5.1	-4	0	2
Cc1cc(NS(=O)(=O)c2cccc([N+](=O)[O-])c2)no1	-5%	2.1	2.3	1.2	1	1	-2
COc1ccc(Cc2nnc(SCC(=O)c3ccc(OC)cc3)o2)cc1	1%	2.3	1.0	3.6	-7	11	-1
O=C(O/C(=C/c1ccccc1)C(F)(F)F)c1ccccc1	0%	/	-4.7	/	-6	/	/
O=C(NCc1nnc(SCC(=O)N2CCC(Cc3ccccc3)CC2)o1)c1ccccc1F	1%	-3.3	4.4	-2.5	-5	-4	1
Cc1ccc(OCC(=O)NCc2cccs2)c([N+](=O)[O-])n1	-2%	2.3	2.9	-3.8	-5	10	-2
CCOc1cc(C(=O)Nc2cc3c(cc2N2CCCC2)n(C)c(=O)n3C)cc(OCC)c1OCC	6%	-5.7	-1.4	4.9	12	11	-4
Cc1cc(Nc2ccc(Cl)cc2)n2nnnc2n1	13%	-5.0	-0.5	8.9	1	28	/
CNC(=O)COC(=O)c1ccc2c(c1)NC(=O)C1CCCN21 (centres undefined)	0%	-0.3	/	-1.3	/	10	-3
Cc1ccc(OS(=O)Nc2cccc3nccnc23)cc1 (centres undefined)	12%	-4.8	-1.4	0.5	11	-1	-5
NC(=O)c1ccccc1NS(=O)(=O)c1ccc2c(c1)OCCO2	-3%	-0.6	-4.7	-1.1	-2	-5	0
CC1Cc2ccccc2N1C(=O)COC(=O)C1=COCCO1 (centres undefined)	-7%	-7.5	-1.0	1.2	5	-6	-12
CNC(=O)N(O)C1N(/N=C/c2cccnc2)C(=S)SC1(C)C (centres undefined)	/	-2.4	0.6	3.6	0	-3	/

Next entries
SMILES	Vif TR-FRET	LANA-H2A inh	HNF4A DNA FP	RanGTP-Impb inh	B2AR ag	Calb FLC	ALR H2O2 inh
COc1ccc(CNC(=O)COC(=O)c2cccc(S(=O)(=O)N3CCOCC3)c2)cc1	11%	-0.3	1.3	/	0	/	0
CC(C)Oc1ccc(C(CC(=O)O)NC(=O)C2CCCCC2)cc1 (centres undefined)	-1%	0.3	6.2	?	7	1	-16
COc1cc(C2NC(=O)NC3=C2C(=O)OC3)cc(OC)c1OC (centres undefined)	-7%	15	-0.5	3.9	4	-2	/
CCOCCCNC(=O)C(c1ccccc1)N(Cc1ccc2c(c1)OCO2)C(=O)CNC(C)=O (centres undefined)	2%	-0.9	0.5	-2.5	0	5	-4
Cn1cccc1/C=N\NC(=O)C1COc2ccc(C(C)(C)C)cc2O1 (centres undefined)	1%	4.1	0.1	-1.5	5	-2	7
CN(C)CCCN(C(=O)c1ccco1)c1nc2ccc(Cl)cc2s1	-4%	-7.2	-2.5	-1.5	13	-28	-5
O=C(CSc1n[nH]c(-c2ccncc2)n1)c1cccc([N+](=O)[O-])c1	/	1.5	-1.1	3.2	2	0	49
O=C(NCc1ccc(F)cc1)c1ccc(S(=O)(=O)Nc2cccc(C(F)(F)F)c2)cc1	/	-1.6	4.1	2.7	0	40	-1
O=C(NC1CCCC1)C(c1ccccn1)N(C(=O)c1csnn1)c1ccc(F)cc1 (centres undefined)	-2%	1.8	1.9	1.6	-15	-11	-6
Cc1c(NC(=O)c2ccc(Cl)c(S(=O)(=O)N3CCOCC3)c2)c(=O)n(-c2ccccc2)n1C	0%	4.6	1.1	4.1	-1	1	2
Cc1cc2nc(C3CCCN(C(=S)Nc4ccccc4)C3)[nH]c2cc1C (centres undefined)	3%	1.8	-3.1	2.2	10	3	-3
COc1ccc(NS(=O)(=O)c2cccc(C(=O)OCC(=O)NC3CC3)c2)cc1	1%	1.4	0.3	-4.2	3	-10	-6
CC(=O)c1ccc(S(=O)(=O)Nc2ccc(-n3cnnn3)cc2)cc1	5%	-0.5	-8.5	/	-5	/	-2
O=C(CSc1ccc(Cl)cc1)Nc1nnc(-c2ccco2)o1	-8%	0.2	-1.9	3.1	0	84*	0
O=C(CN1C(=O)c2ccccc2C1=O)NCCOc1ccccc1	/	2.1	-0.6	1.7	-2	-15	-1
O=C(NCc1ccc(/C=N\NC(=O)C(=O)Nc2ccccc2Br)o1)C(=O)Nc1ccccc1	9%	-0.3	-7.1	-1.1	-3	-11	2
COc1cccc(C2C(C(=O)OC(C)C)=C(C)N=c3s/c(=C\c4ccc(C(=O)O)cc4)c(=O)n32)c1 (centres undefined)	/	-3.2	2.2	1.5	11	5	7
CC(C)c1nc2n[nH]c(N)c2c2c1CSC(C)(C)C2	28%	4.3	-2.7	-1.4	-3	2	98*
CCc1cccc(NC(=O)CN(C)S(=O)(=O)c2cnc[nH]2)c1	-3%	5.2	-2.1	2.7	7	-3	3
COCCC1CCCCN1C(=O)c1ccc(OC)c(OC2CCN(C(C)=O)CC2)c1 (centres undefined)	/	-1.5	-3.3	-0.8	-1	1	0
O=C(NCc1cccnc1)c1ccc(CS(=O)(=O)c2ccc(Cl)cc2)o1	-1%	6.2	3.2	0.0	-4	-2	-1
COc1ccccc1CNC(=O)CNC(=O)c1cn(-c2ccccc2OC)c(=O)c2ccccc12	2%	-0.1	-4.3	-0.5	-1	-4	-14
O=C(N/C(=C\c1ccc2c(c1)OCO2)C(=O)N1CCOCC1)c1ccccc1Br	-1%	-1.4	-1.6	2.0	2	6	8
CCCCC(C(=O)NC1CCCC1)N(C(=O)c1snc(C(N)=O)c1N)c1ccc(C)cc1 (centres undefined)	-1%	-12	-0.2	5.5	-6	4	/
COCC(=O)Nc1sc2c(c1C(=O)OC)CCC(C)C2 (centres undefined)	3%	0.3	4.9	-0.6	0	18	-2
CCCN1C2CCCC1CC(NC(=O)Nc1cccc(C(C)=O)c1)C2 (centres undefined)	2%	5.8	1.9	0.2	-4	-16	/

Part of the list above in another layout.
Value order: Vif TR-FRET	LANA-H2A inh	HNF4A DNA FP	RanGTP-Impb inh	B2AR ag	Calb FLC	ALR H2O2 inh
O=C(N/C(=C\c1ccc2c(c1)OCO2)C(=O)N1CCOCC1)c1ccccc1Br
 : -1%	-1.4	-1.6	2.0	2	6	8
CCCCC(C(=O)NC1CCCC1)N(C(=O)c1snc(C(N)=O)c1N)c1ccc(C)cc1 (centres undefined)
 : -1%	-12	-0.2	5.5	-6	4	/
